StopGo reporter = High Throughput Screening for Foot and Mouth Disease Virus Antivirals. actives 1.2% (n = 410,000). Potency, µM (titrated, usually from 57.9 µM), for inactives: top-dose signal change, negative = less light. human cells with a luciferase reporter of 2A StopGo recoding; control for the full effect not named in the record; active = well fitted falling curve with a large enough effect; inconclusive = small, poorly fitted or top-dose-only effect; inactive = no such curve, though single readings can be large or run the other way; tested in HEK293T cells; further: on the % scale 0 is the no-effect control and ±100 the full control effect; nearly all actives have a fitted effect of over 45% in size; luciferase light after 4 h
Cruzain inh Det = qHTS Assay for Promiscuous and Specific Inhibitors of Cruzain (with detergent) | Cruzipain (Trypanosoma cruzi), P25779 | purified cruzain, Z-FR-AMC fluorescence, 0.01% Triton | Potency, µM, without a hit: max response, negative = inhibition, actives largely listed as inhibitors | actives 0.43% (n = 200,000) | AID 1478, 2009;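 further: plate controls were neutral wells for no effect and buffer without enzyme for full effect; nearly all actives have a fitted effect of over 40% in size; top concentration of the series not given in the record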
Target sequence (P25779 123-467 limits assumed): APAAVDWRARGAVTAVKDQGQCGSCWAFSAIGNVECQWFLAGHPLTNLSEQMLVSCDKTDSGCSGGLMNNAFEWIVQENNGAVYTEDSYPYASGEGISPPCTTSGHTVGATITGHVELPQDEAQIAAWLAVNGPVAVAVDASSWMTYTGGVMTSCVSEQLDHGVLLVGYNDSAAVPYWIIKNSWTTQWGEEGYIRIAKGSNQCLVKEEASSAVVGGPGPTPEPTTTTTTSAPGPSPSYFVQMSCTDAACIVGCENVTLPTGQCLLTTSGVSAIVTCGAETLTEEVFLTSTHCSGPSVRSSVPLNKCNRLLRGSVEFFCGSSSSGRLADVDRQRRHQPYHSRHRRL
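In this qHTS format, compounds are incubated with 1.5 nM cruzain for 15 min at room temperature before 2 uM Z-FR-AMC is added. Release of AMC is followed at 360/450 nm, and progress is taken as the 60 s fluorescence difference.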
Lassa entry inh = qHTS for Inhibitors of binding or entry into cells for Lassa Virus; Lassa virus pseudotype entry inhibition, cell reporter; control for the full effect not named in the record; Potency, µM (doses to about 37.9 µM), without a hit: at the top dose activity change, negative = inhibition, actives largely listed as inhibitors; actives 1.2% (n = 300,000); active means well fitted inhibition curve with a large enough effect; inconclusive means small, poorly fitted or top-dose-only effect, or effect the other way; inactive means flat fitted curve, though single readings scatter; tested in HEK293 cells; further: on the % scale 0 is the no-effect control and ±100 the full control effect; nearly all actives have a fitted effect of over 50% in size; luciferase read-out
RE007 growth inh = qHTS Assay for Inhibitors of the HIV-1 protein Vpr | S. pombe RE007 Vpr strain, BacTiter-Glo ATP luminescence, 24 h; control for the full effect not named in the record | Potency, µM (series often up to 92.2 µM), without a hit: at the top dose activity change, negative = less growth | actives 0.21% (n = 360,000) | AID 651644, 2012; active = well fitted falling curve with a large enough effect; inconclusive = small, poorly fitted or top-dose-only effect; inactive = no such curve, though single readings can be large or run the other way;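 further: on the % scale 0 is the no-effect control and ±100 the full control effect; nearly all actives have a fitted effect of over 50% in size; the assay follows cell death caused by Vpr and the record does not say whether a fall means rescue or toxicity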
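Fission yeast strain RE007, carrying one chromosomally integrated HIV-1 vpr copy, was seeded at OD 0.01 in PMG+AL medium with 23 nL pinned compound. After 24 h at 30 °C and 99% humidity, viability was read by BacTiter-Glo luminescence.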
SARS PLP yeast = qHTS of Yeast-based Assay for SARS-CoV PLP. S. cerevisiae expressing SARS-CoV PLpro, growth rescue; control for the full effect not named in the record. Potency, µM (top dose mostly 32.9 µM), for the others: at the top dose activity, positive = growth rescue. actives 0.19% (n = 330,000); active means well fitted rising curve with a large enough effect; inconclusive means small, poorly fitted or top-dose-only effect; inactive means no such curve, though single readings can be large or run the other way; further: 0% is about no effect; nearly all actives have a fitted effect of over 55% in size; growth read by luminescence after 48 h
Marburg entry inh = qHTS for inhibitors of binding or entry into cells for Marburg Virus | Marburg virus pseudotyped entry inhibition, cell reporter; control for the full effect not named in the record; about a third of the inactives were read at about 46 µM | Potency, µM (top dose mostly 37.8 µM), inactives show top-dose activity change, negative = inhibition, usual class: inhibitors | actives 1.8% (n = 300,000); active = well fitted inhibition curve with a large enough effect; inconclusive = small, poorly fitted or top-dose-only effect, or effect the other way; inactive = flat fitted curve, though single readings scatter; tested in HEK293 cells; about a fifth of its hits are not listed in these tables; further: on the % scale 0 is the no-effect control and ±100 the full control effect; luciferase read-out
NS1 inh = qHTS Assay for Inhibitors of Influenza NS1 Protein Function | S. cerevisiae slowed by influenza A NS1, growth recovery by OD600 | Potency, µM (highest dose often 46.1 µM), for the others: top-dose activity, positive = more growth | actives 0.4% (n = 270,000) | AID 2326, 2010; active means well fitted rising curve with a large enough effect; inconclusive means small, poorly fitted or top-dose-only effect; inactive means no such curve, though single readings can be large or run the other way; further: nearly all actives have a fitted effect of over 50% in size
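In this qHTS, NS1 from influenza A is expressed in budding yeast, where it slows growth. Cells are switched from glucose to 2% galactose medium (pH 6.0, -URA), treated with compound, and growth recovery is read at OD600.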
Cruzain inh noDet = qHTS Assay for Promiscuous and Specific Inhibitors of Cruzain (without detergent); Potency, µM, for the others: max response, negative = inhibition, usual class: inhibitors; purified cruzain, Z-FR-AMC fluorescence, no detergent; actives 2.3% (n = 200,000); Cruzipain (Trypanosoma cruzi), P25779;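 further: plate controls were enzyme without inhibitor for no effect and buffer without enzyme for full effect; nearly all actives have a fitted effect of over 40% in size; top concentration of the series not given in the record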
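Purified cruzain at 1.5 nM, pre-incubated 15 min with compound at room temperature in 100 mM sodium acetate pH 5.5, 5 mM DTT, 0.00005% Triton X-100. Reaction started with 2 uM Z-FR-AMC; AMC fluorescence increase over 60 s gives rate.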
* marks the source's active call; other numbers are inactive results; ? = inconclusive; . = no result given; [ ] = another dose, or the depositor's remark. Unless noted, the call rests on the fitted dose curve; in most records, active means well fitted curve in the direction sought with a large enough effect; inconclusive means small, poorly fitted or top-dose-only effect, or another doubt; inactive means no such curve, though single readings can be large; an effect the other way counts as inactive or inconclusive. Potency means the concentration at half of the fitted maximal effect.

SMILES	StopGo reporter	Cruzain inh Det	Lassa entry inh	RE007 growth inh	SARS PLP yeast	Marburg entry inh	NS1 inh	Cruzain inh noDet
Nc1ccc(-n2nncc2-c2ccccc2)cc1	0%	-0.8%	2%	1%	0%	6%	4%	-9%
Cc1ccccc1Nc1nc(N)nc(CSc2ccccc2)n1	-10%	-2.2%	?	1%	-9%	?	-21%	-13%
COC(=O)c1c(-c2ccc(C)cc2)csc1NC(=S)NC(=O)c1ccc(F)cc1	-21%	-2.1%	1%	1%	-4%	9%	13%	13µM*
CCN(c1ccc(NC(=O)COC(=O)c2ccc3ccccc3n2)cc1)C(C)C	8%	1.3%	?	-7%	-5%	7%	4%	-6%
CCCCn1c(SCC(=O)Nc2cc(C)on2)nnc1-c1cccs1	-11%	.	.	28%	2%	10%	0%	.
CCn1c(SCC(=O)N2CCc3ccccc32)nnc1-c1ccco1	-11%	3.1%	13%	-11%	6%	8%	-10%	4%
O=C(Oc1ccc(N2C(=O)CCC2=O)cc1)c1ccco1	5%	4.7%	?	-2%	-1%	20%	2%	3%
CCN(CC)c1ccc(/C=N/N2CCOCC2)cc1	0%	-2.9%	?	5%	-20%	?	-7%	3%
Cc1ccc(SCCC(=O)N2CCC(C)CC2)cc1	52%[activator]	-5.3%	?	-12%	14%	2%	0%	1%
CC1CC(C)CN(C(=O)c2ccc(NS(=O)(=O)c3ccc4[nH]c(=O)[nH]c4c3)cc2)C1 (stereo not given)	0%	.	6%	-9%	-6%	12%	.	.
Clc1ccc(-c2cccs2)nn1	0%	.	?	-20%	4%	?	.	.
CCN(CC)CCCNC(=O)CC1Sc2ccccc2NC1=O (stereo not given)	-17%	-2.3%	0%	-7%	4%	-6%	3%	1%
COc1ccc(Br)cc1CNCCSc1nnnn1C	7%	2.9%	8%	16%	-3%	3%	-6%	2%
CCc1ccc(NC(=O)Cn2c(=O)n(Cc3ccc(C)cc3)c(=O)c3cccnc32)cc1	14%	1.1%	.	.	.	4%[46.1 µM]	.	-10%
C=CCc1c(N(CC)CC)nc(C)[nH]c1=O	-9%	.	0%	11%	1%	1%[46.1 µM]	0%	.
COc1ccc(N2CCN(C(CNC(=O)c3cccc(OC)c3)c3cccnc3)CC2)cc1 (stereo not given)	-24%	-4.9%	-11%[46.1 µM]	.	.	.	.	?
O=C(CS(=O)CC(=O)N(CC(=O)NC1CCCC1)c1ccc2c(c1)OCCO2)Nc1ccc(F)cc1 (stereo not given)	4%	4.2%	-9%	24%[3.69 µM]	0%	-3%	-5%	-1%
COc1ccc(NC(C#N)c2ccccc2OCc2ccccc2)cc1 (stereo not given)	17%	-3.6%	.	-7%	-14%	.	-12%	-3%
O=C(c1cccc(S(=O)(=O)N2CCCCCC2)c1)N1CCN(c2ccccc2F)CC1	?	.	12%	21%	-1%	1%	-13%	.
N=c1c2c(n(Cc3ccccc3)c3c1CCC3)CCC2	?	-2.0%	1.6µM*	-4%	-4%	?	-2%	-14%
Cc1cc(NC(=O)CS(=O)(=O)c2cn(Cc3ccccc3Cl)c3ccccc23)no1	0%	-3.8%	?	-2%	7%	?	?	25µM*
Nc1nonc1-n1nnc(C(=O)N/N=C/c2cccnc2)c1CSc1ccc(Cl)cc1	-23%	.	.	-3%	0%	.	7%	.
CCc1cc(C(=O)N/N=C/c2ccc(O)cc2)c2ccccc2n1	18%	.	?	13%	-1%	?	-3%	.
CC1CCCCN1C(=O)COC(=O)CSc1ccc(C(N)=O)cc1[N+](=O)[O-] (stereo not given)	2%	.	-4%	1%	.	9%[46.1 µM]	.	.
C#CCN1C(=O)C(O)(CC(=O)c2cc(OC)ccc2OC)c2ccccc21 (stereo not given)	13%	-2.1%	-29%	-12%	-1%	-14%[46.1 µM]	-9%	-3%

Remaining list, next part:
SMILES	StopGo reporter	Cruzain inh Det	Lassa entry inh	RE007 growth inh	SARS PLP yeast	Marburg entry inh	NS1 inh	Cruzain inh noDet
Cc1ccc(-n2nnnc2-c2cnc3cc4c(cc3c2C)OCO4)cc1	?	-2.6%	20%	-5%	9%	-15%	-4%	-4%
CCN(CC)S(=O)(=O)c1ccc(NC(=O)COc2cccc(-n3cnnn3)c2)cc1	-11%	.	0%[46.1 µM]	9%	8%	-4%[46.1 µM]	.	.
COc1ccc(S(=O)(=O)N2CCOCC2)cc1NC(=O)CSc1cc(C)ccc1C	-3%	.	4%	7%	-2%	?	.	.
CCOC(=O)c1c(CN(C)C)oc2cc(CN(C)C)c(O)c(CSc3ccccc3)c12	-20%	0.8%	-10%	1%	0%	10µM*	10%	-5%
CC(C)(C)N/N=C1\CC(c2ccccc2)Oc2ccccc21 (stereo not given)	-27%	-12%	-14%	7%	17%	4%	-25%	3%
CC(=O)NCCc1ccc(S(=O)(=O)NCc2ccc3c(c2)OCO3)cc1	44%[activator]	2.9%	4%	-7%	0%	-2%	-5%	0%
CC(=O)c1cccc(CN2CCC(n3nccc3NC(=O)CCCc3ccccc3)CC2)c1	-9%	.	-1%	-17%	-5%	2%	8%	.
O=C(O)CN1C(=O)/C(=C\c2cccc(OCc3ccccc3F)c2)SC1=S	21%	.	7%	14%	0%	27%[46.1 µM]	7%	.
Cc1cccc(CCNC(=O)CNS(=O)(=O)c2ccc3nc(C)sc3c2)c1	-2%	.	?	1%	1%	9%[46.1 µM]	-12%	.
CCOc1ccc(OCC(=O)Nc2ccccc2C(F)(F)F)cc1	58%[activator]	.	17%	-4%	0%	?	-2%	.
COc1cccc(CNC(=O)c2cccc(NC(=O)C3=C(C)OCCS3)c2)c1	-28%	.	.	-6%	-6%	.	-5%	.
Cc1cc(-c2ccc(C)c(S(=O)(=O)NCc3cccs3)c2)on1	41%[activator]	-2.9%	-28%[46.1 µM]	.	.	.	.	-1%
COc1ccc(/C=N/NC(=O)C(Cc2c[nH]c3ccccc23)NC(=O)OCC(C)C)cc1[N+](=O)[O-] (stereo not given)	-19%	-1.3%	-21%	-11%	0%	-29%	18%	3%
Clc1ccc(-c2cn3ccccc3n2)cc1	-5%	.	.	?	-30%	.	-41%	.
CC1CCCN(C(=O)c2nn(C)c3c2CS(=O)(=O)c2ccccc2-3)C1 (stereo not given)	-24%	.	.	-9%	0%	.	-4%	.
CCOc1ccc(CCNC(=O)c2nn(C)c3c2CS(=O)(=O)c2ccccc2-3)cc1OCC	-1%	.	?	1%	24%	?	14%	.
Cc1occc1-c1nnc(SCC(=O)N2CCOCC2)o1	16%	5.0%	11%	-5%	1%	-1%	-5%	-1%
CCOC(=O)N1CCN(C(=S)NC(=O)C23CC4CC(CC(C4)C2)C3)CC1	-10%	.	?	9%	1%	?	.	.
COc1cccc(C2CC(c3ccc(C(C)C)cc3)n3nc(N)nc3N2)c1 (stereo not given)	-25%	1.3%	.	-3%	-1%	.	-22%	8%
CCCC[C@@H](CNC)NC[C@H](Cc1ccc(O)cc1)NCCc1ccc(OCC)cc1	-2%	.	.	0%	-6%	.	-6%	.
CNC(=O)c1[nH]cnc1C(=O)Nc1ccc(OC)cc1	-7%	.	.	2%	-2%	.	-10%	.
COc1ccc(NC(=O)c2cccc3ccccc23)cc1	17%	.	10%[46.1 µM]	2%	-7%	?	-10%	.
CCOC(=O)C1=C(C)N=C(SC)N(C)C1c1ccccc1 (stereo not given)	?	-1.3%	0%	6%	-9%	2%	-16%	10%
NC(=O)CC1C(=O)N(c2ccccc2)C(=S)N1NC(=O)c1ccc(Br)cc1 (stereo not given)	6%	.	2%[46.1 µM]	5%	3%	?	5%	.
Nc1nc(NCCO)nc(NCc2ccccc2)c1[N+](=O)[O-]	-18%	.	13%[46.1 µM]	6%	0%	?	3%	.

Reformatted in CSV form: entries from further up.
mol,StopGo reporter,Cruzain inh Det,Lassa entry inh,RE007 growth inh,SARS PLP yeast,Marburg entry inh,NS1 inh,Cruzain inh noDet
COc1cccc(C2CC(c3ccc(C(C)C)cc3)n3nc(N)nc3N2)c1 (stereo not given),-25%,1.3%,.,-3%,-1%,.,-22%,8%
CCCC[C@@H](CNC)NC[C@H](Cc1ccc(O)cc1)NCCc1ccc(OCC)cc1,-2%,.,.,0%,-6%,.,-6%,.
CNC(=O)c1[nH]cnc1C(=O)Nc1ccc(OC)cc1,-7%,.,.,2%,-2%,.,-10%,.
COc1ccc(NC(=O)c2cccc3ccccc23)cc1,17%,.,10%[46.1 µM],2%,-7%,?,-10%,.
CCOC(=O)C1=C(C)N=C(SC)N(C)C1c1ccccc1 (stereo not given),?,-1.3%,0%,6%,-9%,2%,-16%,10%
NC(=O)CC1C(=O)N(c2ccccc2)C(=S)N1NC(=O)c1ccc(Br)cc1 (stereo not given),6%,.,2%[46.1 µM],5%,3%,?,5%,.

Going on with the list.
SMILES	StopGo reporter	Cruzain inh Det	Lassa entry inh	RE007 growth inh	SARS PLP yeast	Marburg entry inh	NS1 inh	Cruzain inh noDet
CCOc1ccc(C2CC(=O)c3c([nH]c(C(=O)OC)c3C)C2)cc1OC (stereo not given)	?	2.5%	?	-7%	.	?	-8%	?
O=c1oc2c(-c3ccc([N+](=O)[O-])cc3)cc(O)cc2s1	-16%	.	?	68%	-1%	-14%[46.1 µM]	4%	.
Cc1cc(SCC(=O)NC(=O)NCc2ccco2)nc2ccccc12	-29%	-9.5%	-9%	17%	-4%	-29%	-6%	-17%
Oc1c(CN2CCCCC2)cc(Br)c2cccnc12	?	5.1%	.	?	-40%	0%	-196%	-3%
c1ccc2cc(OCCCn3ccnc3)ccc2c1	5%	.	?	-1%	-5%	3%[46.1 µM]	-4%	.
COc1ccccc1C(=O)Nc1ccc(S(=O)(=O)N2CCCCC2c2cccnc2)cc1 (stereo not given)	?	.	.	0%	-1%	.	-38%	.
